Compound activity deposited in PubChem BioAssay by several laboratories.
YopH PTP inh: YopH (Yersinia) phosphatase inhibition; inhibition, %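 (about 10 µM by stock and volumes)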; 140,000 tested, 0.16% active; fluorescence Ex485/Em525; AID 898;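 active means inhibition of 50% or more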;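 further: controls were vehicle for no effect and minimum signal wells for full effect; inactives centre near -20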
Mtb betalactam: beta-lactam sensitization of Mtb H37Rv; M. tuberculosis H37Rv growth with meropenem, percent inhibition; hits of this screen are not shown here; inhibition, % at 25 µM; 330,000 tested, 0.27% active;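 active means about 74% or more and at least 40 points above the plate without the antibiotic, then above 30% in a dose series; inconclusive means first-round hits that could not be retested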;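 further: growth measured after seven days incubation then overnight dye step; 0% = bacteria only wells and 100% = bacteria with antibiotic; twin plates without the antibiotic show which effects depend on it; some results filed as inactive read as strong as hits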
Mtb growth: M. tuberculosis H37Rv growth inhibitors, H37Rv strain (AID 1626). 220,000 tested, 0.95% active. M. tuberculosis H37Rv growth inhibition; higher % means a stronger effect. inhibition, % at 10 µM, or IC50 in µM where a hit was titrated;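 active means confirmed in a dose series; inconclusive means inhibition above 80% but not taken into the dose series; inactive means below 80% or under 30% at every dose of the series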;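 further: bacteria incubated seven days before Alamar blue readout; 0% = bacteria only wells and 100% = bacteria with antibiotic wells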
Arbovirus anti: antivirals against arbovirus infection; 200,000 tested, 0.37% active; inhibition, % at 10 µM; arbovirus infection cell-based antiviral screen;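 active means inhibition from about 30%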;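 further: bluetongue infection of BSR cells; cell survival read as ATP light after 72 h; 0% = infected wells without compound and 100% = uninfected wells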
RecA splice inh: inhibitors of M. tuberculosis RecA intein splicing; 290,000 tested, 0.75% active; inhibition, %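 (about 9 µM by stock and volumes)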; cell-free RecA intein splicing, fluorescence; in the data active means inhibition above about 30%; inconclusive means no clear call, values can overlap the other calls;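 further: 0% = vehicle wells and 100% = reference inhibitor control wells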
Target sequence (P9WHJ3 whole entry, looked up, canonical isoform): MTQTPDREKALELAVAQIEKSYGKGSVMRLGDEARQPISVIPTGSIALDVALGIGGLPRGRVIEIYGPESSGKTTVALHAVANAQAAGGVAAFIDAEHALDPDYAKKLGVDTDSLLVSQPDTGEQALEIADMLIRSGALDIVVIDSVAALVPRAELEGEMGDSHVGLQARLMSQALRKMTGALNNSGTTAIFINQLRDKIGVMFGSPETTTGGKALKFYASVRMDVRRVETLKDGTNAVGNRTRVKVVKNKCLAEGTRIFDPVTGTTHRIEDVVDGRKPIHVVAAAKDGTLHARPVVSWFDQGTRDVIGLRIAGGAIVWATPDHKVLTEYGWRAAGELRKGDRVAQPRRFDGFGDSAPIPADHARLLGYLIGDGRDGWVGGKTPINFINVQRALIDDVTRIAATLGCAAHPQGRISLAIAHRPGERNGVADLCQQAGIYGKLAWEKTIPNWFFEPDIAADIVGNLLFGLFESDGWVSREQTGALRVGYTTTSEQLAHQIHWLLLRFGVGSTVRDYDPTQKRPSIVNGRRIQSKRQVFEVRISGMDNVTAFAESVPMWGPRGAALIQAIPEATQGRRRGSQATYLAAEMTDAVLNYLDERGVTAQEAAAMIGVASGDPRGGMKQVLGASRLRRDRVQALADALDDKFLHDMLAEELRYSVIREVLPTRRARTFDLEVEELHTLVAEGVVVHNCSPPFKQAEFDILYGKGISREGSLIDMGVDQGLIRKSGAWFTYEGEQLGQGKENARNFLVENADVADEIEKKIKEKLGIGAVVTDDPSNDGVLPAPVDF
Arbovirus anti repeat: recorded beside Arbovirus anti, whose call it bears; inhibition, %; measured here: 10K subset replicate screen; many hits read low in the repeat;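 first of two repeat runs on a subset; 0% = infected and 100% = uninfected wells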
* hit, by the source's call; ? = inconclusive; . = not tested or not shown.

SMILES	YopH PTP inh	Mtb betalactam	Mtb growth	Arbovirus anti	RecA splice inh	others
COc1ccc(-c2nc(CS(=O)(=O)CC(=O)Nc3ccc(Cl)cc3)c(C)o2)cc1	-20	8	5%	3	1.4	Arbovirus anti repeat=0
CC(=O)c1csc(Nc2ccccc2Cl)n1	.	-4	-7%	.	13
O=C(c1cccc(F)c1)N(Cc1nc2ccccc2c(=O)[nH]1)C1CCCC1	.	2	0%	6	2.0
O=C1CC(N2CCC(C(=O)N3CCCCC3)CC2)C(=O)N1 (centres undefined)	-25	0	-5%	-5	-0.8
CCNc1ccc(S(=O)(=O)N(C)C)cc1NCC(=O)Nc1ccccc1F	-13	9	-3%	-2	-0.2
Cc1ccc(S(=O)(=O)N2CCN(C(=O)c3cc(S(=O)(=O)N(C)C)ccc3N3CCCC3)CC2)cc1	.	-5	.	.	2.8
Cc1c(Cc2ccccc2)sc(NC(=O)Cc2ccccc2)c1C(N)=O	23	4	0%	.	-5.7
O=C(N/C(=C/c1ccccc1Cl)C(=O)N1CCCCC1)c1ccco1	.	-14	.	.	-0.3
COc1ccccc1-n1c(SCC(=O)N2CCCC2)nc2cccnc21	0	-2	2%	4	4.5
N#Cc1nc(-c2ccccc2Cl)oc1N1CCN(C(=O)c2ccco2)CC1	.	?	.	.	1.1
CNCc1c(OCc2ccccc2F)ccc2ccccc12	.	1	8%	3	7.5
CCOc1ccc(CCNC(=O)Nc2ccccc2)cc1OCC	.	-2	.	.	0.7
O=C(O)c1ccc(Cl)c(S(=O)(=O)Nc2cccc(C(=O)Nc3cccc(C(F)(F)F)c3)c2)c1	.	-3	-9%	7	-0.7
CCS(=O)(=O)Nc1ccc2c(c1)N(C(C)=O)c1ccccc1CC2	-37	-10	1%	5	0.2
CCOC(=O)CN=C/C(C(=O)Nc1nccs1)=C(/C)O	.	1	2%	8	-3.0

Of the compounds above, 6 contain nitrogen in an aromatic ring.
SMILES	YopH PTP inh	Mtb betalactam	Mtb growth	Arbovirus anti	RecA splice inh	others
COc1ccc(-c2nc(CS(=O)(=O)CC(=O)Nc3ccc(Cl)cc3)c(C)o2)cc1	-20	8	5%	3	1.4	Arbovirus anti repeat=0
CC(=O)c1csc(Nc2ccccc2Cl)n1	.	-4	-7%	.	13
O=C(c1cccc(F)c1)N(Cc1nc2ccccc2c(=O)[nH]1)C1CCCC1	.	2	0%	6	2.0
COc1ccccc1-n1c(SCC(=O)N2CCCC2)nc2cccnc21	0	-2	2%	4	4.5
N#Cc1nc(-c2ccccc2Cl)oc1N1CCN(C(=O)c2ccco2)CC1	.	?	.	.	1.1
CCOC(=O)CN=C/C(C(=O)Nc1nccs1)=C(/C)O	.	1	2%	8	-3.0

Other compounds:
SMILES	YopH PTP inh	Mtb betalactam	Mtb growth	Arbovirus anti	RecA splice inh	others
O=C(c1cc(COc2cccc3cnccc23)on1)N1CCC(c2ccccc2Cl)C1 (centres undefined)	.	78	.	.	1.2
COc1ccc(CNc2nc3nc(-c4ccccc4)cc(=O)n3[nH]2)cc1OC	-25	-6	3%	-3	-10
FC(F)(F)c1nnc(-c2ccccc2)nc1Sc1ccccc1	-33	1	22µM*	-37	63*
CCOC(=O)c1sc(NC(=O)CSc2nc(-c3ccco3)cc(C(F)(F)F)n2)c(C#N)c1C	-36	0	0%	10	-0.6
Cc1nnc(N/N=C/c2ccc(O)c([N+](=O)[O-])c2)[nH]c1=O	3	20	3%	-9	-0.7
COc1cccc(/C=C/C(=O)Nc2ccc3nc4n(c(=O)c3c2)CCCC4)c1OC	.	10	-1%	-5	0.0
O=[N+]([O-])c1cc(S(=O)(=O)Nc2ccccc2)ccc1NCc1cccnc1	-13	-7	-1%	13	-5.3
C=C1CCN([C@@H](C)C(=O)NCc2ccc(Cl)cc2)S(=O)(=O)c2ccccc21	.	-5	0%	.	3.4
CCC(C)NC(=O)CCCCCn1c(=O)[nH]c2cc(OC)c(OC)cc2c1=O (centres undefined)	-33	-6	1%	-5	-0.6	Arbovirus anti repeat=0
CC(C)NC(C)C(=O)C12CC3CC(CC(C3)C1)C2 (centres undefined)	-3	-8	2%	-4	1.2
CN(CC(=O)Nc1ccc(F)cc1)C(=O)COC(=O)CNC(=O)c1ccc(Cl)cc1Cl	.	-5	.	.	0.6
Oc1c(Br)cc(Br)cc1CNc1cccc2cccnc12	.	11	.	.	13
CC(C)CN(C(=O)c1ccc(N2CCCC2=O)cc1)C1CCS(=O)(=O)C1 (centres undefined)	.	0	.	.	-3.5
CCCC1(C(=O)OCC)NC(c2ccc(N(C)C)cc2)C2C(=O)N(c3ccc4c(c3)OCCO4)C(=O)C21 (centres undefined)	35	-2	-8%	-8	0.1
O=C(NNC(=O)c1ccc2c(c1)OCO2)NC1CCCCC1	-18	-14	.	2	-1.2

Structures shown so far with an aryl methoxy group:
SMILES	YopH PTP inh	Mtb betalactam	Mtb growth	Arbovirus anti	RecA splice inh	others
COc1ccc(-c2nc(CS(=O)(=O)CC(=O)Nc3ccc(Cl)cc3)c(C)o2)cc1	-20	8	5%	3	1.4	Arbovirus anti repeat=0
COc1ccccc1-n1c(SCC(=O)N2CCCC2)nc2cccnc21	0	-2	2%	4	4.5
COc1ccc(CNc2nc3nc(-c4ccccc4)cc(=O)n3[nH]2)cc1OC	-25	-6	3%	-3	-10
COc1cccc(/C=C/C(=O)Nc2ccc3nc4n(c(=O)c3c2)CCCC4)c1OC	.	10	-1%	-5	0.0
CCC(C)NC(=O)CCCCCn1c(=O)[nH]c2cc(OC)c(OC)cc2c1=O (centres undefined)	-33	-6	1%	-5	-0.6	Arbovirus anti repeat=0

(more compounds)
SMILES	YopH PTP inh	Mtb betalactam	Mtb growth	Arbovirus anti	RecA splice inh	others
COC(=O)c1sc(=S)n(-c2ccc(Cl)cc2)c1C	-10	-9	12%	-3	-2.2
NS(=O)(=O)c1ccc(CNS(=O)(=O)c2cccc3nonc23)cc1	.	22	5%	.	-1.5
CCOC(=O)c1c(C)[nH]c(C)c1C(=O)CSc1ncccn1	-1	-4	0%	9	-3.8
O=C(CSc1ncnc2ccccc12)c1ccc2c(c1)OCCO2	-19	3	12%	17	4.1
C=CCOC(=O)C1=C(C)NC(=O)NC1c1ccc(Cl)cc1 (centres undefined)	-50	-5	-1%	1	3.3	Arbovirus anti repeat=-3
COc1ccc(CC(NC(C)=O)C(=O)NC2CCN(S(=O)(=O)c3ccc(NC(C)=O)cc3)CC2)cc1OC (centres undefined)	.	-3	-9%	3	-5.6
COc1ccc2c(c1)C(=O)N(c1ccccc1C)C(=O)C2(C)C	.	-3	8%	1	2.1
COc1ccc(OCC(=O)OCCNC(=O)c2cccnc2)cc1	-26	-2	0%	-14	-2.1
COc1ccc(N2C(=O)c3ccccc3S2(=O)=O)cc1	.	-3	-3%	.	0.8
Cc1ccc(-n2c(SCC(=O)O)nc3sc4c(c3c2=O)C(C)CCC4)cc1 (centres undefined)	.	2	.	.	2.7
O=C1/C(=C/c2ccccc2)SC(=S)N1C1CCS(=O)(=O)C1 (centres undefined)	.	6	-14%	.	5.6
Cc1ccc(-n2ncc(C(=O)NCC3CCN(C4CCCC4)C3)c2C2CCN(C(=O)OC(C)(C)C)CC2)cc1 (centres undefined)	.	12	.	.	2.0
CCOC(=O)C1=C(CSc2nc3c(cc2C#N)CN(C)CC3)OC(N)=C(C#N)C1c1ccc(Cl)cc1 (centres undefined)	6	-5	-4%	2	-7.7
COc1ccc(C(CC(=O)NCc2ccco2)c2ccc(F)cc2)cc1 (centres undefined)	-9	2	5%	-8	0.5
CCc1ccc(-c2cc(C)no2)cc1S(=O)(=O)N1CCOc2ccc(C)cc21	.	?	.	.	-1.9
N#CCC(=O)N/N=C1\CCCCC1C1CCCCC1 (centres undefined)	-23	65	-1%	-2	7.5
COC(=O)c1ccccc1NC(=O)CSc1ccccn1	-40	6	7%	4	1.5
Cc1c(CC(=O)NCCCC(=O)O)c(=O)oc2cc3occ(-c4ccccc4)c3cc12	.	-3	.	.	0.6
C=CCn1cccc(C(=O)Nc2ccc(OC)c(OC)c2)c1=O	.	2	1%	12	-1.3
O=C(NCCC1CCCCN1S(=O)(=O)c1cccs1)C(=O)Nc1ccccc1F (centres undefined)	.	2	.	.	-1.3
CC(C)NC(=O)N1CCC(c2nc3ccccc3s2)CC1	.	-8	.	.	0.0
COc1cc(NC(=O)COC(=O)/C=C/c2c(C)nn(-c3ccc(F)cc3)c2Cl)cc(OC)c1	-40	3	-5%	3	-0.2
COc1ccc(N(CC(=O)NCCSCc2cccc(Cl)c2)S(C)(=O)=O)cc1Cl	.	4	.	.	0.0
CC(C)OC(=O)CSc1nc2cccnc2n1-c1ccc(F)cc1	17	2	-1%	4	.
O=[N+]([O-])c1ccc(Oc2ccc(F)cc2Br)c2ccncc12	-14	4	13%	-30	5.5
Cc1ncoc1C(=O)N1CCCC(CCC(=O)NCc2ccccc2F)C1 (centres undefined)	.	-3	6%	-6	1.5
CCOC(=O)C1CCCN(c2ccc(NC(=O)c3snc4c(=O)[nH]c(C)nc34)cc2)C1 (centres undefined)	-10	8	1%	11	2.3
C=CC[C@]12C=C(OC)C(=O)C=C1O[C@@H](c1ccc3c(c1)OCO3)[C@H]2C	.	0	-13%	.	-2.0
O=C(O)CCn1c(=O)n(CCC(=O)O)c(=O)n(CCC(=O)O)c1=O	.	4	-6%	3	-0.2
[O-][n+]1onc2c1CCc1nnccc1-2	-11	-5	-2%	3	-1.5
CCOC(=O)N1CCC2(CC1)CC(=O)c1c(ccc3oc(C(=O)O)c(C)c13)O2	-36	-9	-6%	4	-2.3
CS(=O)(=O)Oc1ccc2c(c1)O/C(=C\c1cccc([N+](=O)[O-])c1)C2=O	.	8	.	.	-1.0
O=C(CCCn1c(=O)oc2ccccc21)Nc1cccnc1	4	-9	-6%	-3	6.7
Cc1cccc(NS(=O)(=O)c2ccc(C(=O)N3CC(C)OC(C)C3)cc2)c1C (centres undefined)	.	-12	.	.	-2.9
COc1ccc(OC)c(C=Nc2ccccc2-c2nc3ccccc3[nH]2)c1	-31	-3	4%	5	0.0
O=C(Nc1ccc(Nc2ccccc2)cc1)C(Cl)(Cl)Cl	-23	4	-9%	-16	3.3
COCCOC1CCN(C(=O)c2ccc(OC)c(OC3CCN(C(C)C)CC3)c2)CC1	.	3	.	.	-1.6
COc1ccccc1C1=Nn2c(COc3ccccc3)nnc2SC1	.	3	6%	-2	.
O=C(NCc1cccnc1)c1cccc(NS(=O)(=O)c2ccc(Br)cc2)c1	.	-8	.	.	0.7
CCCNS(=O)(=O)c1ccc(Oc2ncc(C(F)(F)F)cc2Cl)cc1	-44	1	-2%	-2	-0.9
COC(=O)c1oc2ccc(Br)cc2c1NC(=O)c1ccccc1	-20	-1	7%	-2	-0.9
CC(=O)C1=C(C)OC(N)=C(C#N)C1c1cc([N+](=O)[O-])ccc1Cl (centres undefined)	.	1	-1%	.	-1.6
CC(=O)O/N=C(\N)c1cnn2c(C(F)(F)F)cc(C(F)(F)F)nc12	.	-2	-12%	.	-1.2
Cc1ccc(N2CC(C(=O)OCC(=O)c3c(N)n(CC(C)C)c(=O)n(C)c3=O)CC2=O)cc1 (centres undefined)	.	-1	.	.	-1.8
COc1cc(NC(=O)CN2CCCCC2)c(C)cc1[N+](=O)[O-]	-22	-3	-3%	-4	0.4
O=C(COc1ccccc1)c1cn(CC(=O)N2CCOCC2)c2ccccc12	-31	-4	-3%	-4	-0.6
Cc1nc(SCc2ccc(F)cc2)c2oc3ccccc3c2n1	.	7	<0.2µM*	.	1.5
O=C1N=C(N2C=CC(=C3C=CNC=C3)C=C2)/C(=C/N=NC(=O)c2ccccc2)S1	.	3	.	.	0.0
CCCCn1c(/C=C/c2ccco2)nc2ccccc21	12	25	-4%	15	12
CCCOc1ccc(NC2=CC(=O)CC(C)(C)C2)cc1	5	-8	46%	-5	-0.7	Arbovirus anti repeat=-6
COc1ccc(NC(=O)CN2CCN(c3ccccc3)CC2)cc1	.	-5	-3%	1	-0.4
CCCOc1ccc(C(=O)Nc2ccc(Cl)cn2)cc1	-25	89	17%	-2	-1.8
CCc1nnc(NS(=O)(=O)c2ccc(N3C(=O)c4ccccc4C3=O)cc2)s1	.	-2	-6%	2	-1.9
CC(C)N(C(=O)CSc1nnc(CN2CCCCCC2=O)n1-c1ccccn1)C(C)C	-33	-6	-4%	10	2.6
C=CCN(CC=C)C(=O)C(=O)c1cc(C)n(-c2ccc([N+](=O)[O-])cc2)c1C	-36	-12	.	-7	0.2
Cc1nc2ccn(Cc3ccccc3)c(=O)c2cc1C(=O)N1CCN(c2ccc(F)cc2)CC1	.	7	.	.	0.9
COc1ccc(S(=O)(=O)Cc2ccc(C(=O)O)o2)cc1	.	-3	.	.	-1.4
CCC(C)C(=O)Nc1cc(OC)c(OC)cc1C(=O)O (centres undefined)	-35	11	3%	-4	1.2
O=C(Nc1cc(S(=O)(=O)N2CCOCC2)ccc1N1CCOCC1)c1ccc(S(=O)(=O)N2CCCCC2)cc1	.	-1	-3%	3	.

These rows are one share of the data; the hit share may differ from the screen's.
